# PINK1 modulator = modulators of PINK1 expression | PINK1 immunofluorescence, high-content cytometry, 24 h | Potency, µM (titrated, usually from 76.6 µM), for inactives: top-dose activation (PINK1 increase), most hits filed as activators | 0.2% of 410,000 active; active = well fitted activation curve with a large enough effect; inconclusive = small, poorly fitted or top-dose-only effect; inactive = flat fitted curve, though single readings scatter; cell line not stated here;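 further: potency means the concentration at half of the fitted maximal effect; % of control where 0% means no effect; nearly all actives have a fitted effect of over 65% in size; a mitochondrial uncoupler was the plate control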
#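 Stable cell line, 250 cells/well, 12 h attachment; compounds pinned at 5 concentrations, 24 h; CCCP control. Fixed with nuclear dye, primary antibodies 12 h at 10 degrees C, secondary plus cell stain; laser-scanning cytometer read.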
# D2 agonist = human D2 receptor agonism in beta-arrestin assay; AID 624465; P14416; 0.084% of 360,000 active; activation, % (test concentration not listed); DiscoveRx PathHunter D2 beta-arrestin, luminescence, 90 min; 100% = 57 uM dopamine signal; in the data active = activation above about 40%; inconclusive = about 15% to 40%; inactive = below about 15%; further: compound concentration not given in the record; the text of the record calls up to 30% inactive
# Target sequence (P14416 whole entry, looked up): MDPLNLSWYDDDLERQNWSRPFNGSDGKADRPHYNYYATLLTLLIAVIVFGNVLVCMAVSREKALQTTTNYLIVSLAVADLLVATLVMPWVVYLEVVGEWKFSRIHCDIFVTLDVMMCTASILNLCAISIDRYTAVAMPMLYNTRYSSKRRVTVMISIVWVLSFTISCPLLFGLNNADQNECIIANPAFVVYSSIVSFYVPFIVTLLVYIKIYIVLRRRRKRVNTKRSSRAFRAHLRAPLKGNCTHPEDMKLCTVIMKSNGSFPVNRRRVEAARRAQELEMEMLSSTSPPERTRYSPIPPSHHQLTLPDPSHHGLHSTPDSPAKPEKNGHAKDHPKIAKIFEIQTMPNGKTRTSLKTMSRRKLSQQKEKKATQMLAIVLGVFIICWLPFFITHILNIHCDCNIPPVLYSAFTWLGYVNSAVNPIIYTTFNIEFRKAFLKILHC
#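 Agonist mode: compounds alone added to overnight-plated D2 PathHunter cells for 90 min at 37 C, with 57 uM final dopamine (EC100) defining full response. Beta-arrestin recruitment detected by chemiluminescent reagent, read after 1 h at ambient temperature.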
# TRPML1 ag = agonists of human TRPML1 channel; activation, % (concentration not given with the values); TRPML1-expressing cells, Ca2+ dye fluorescence, FDSS; host cell line not named in the record; reference of the full effect not given here; Q9GZU1; 0.12% of 410,000 active; in the data active = activation above about 50%; inconclusive = about 30% to 50%; inactive = below about 30%; further: 0% is about no effect; the text of the record puts the active cut at 80%
# Target sequence (Q9GZU1 whole entry, looked up): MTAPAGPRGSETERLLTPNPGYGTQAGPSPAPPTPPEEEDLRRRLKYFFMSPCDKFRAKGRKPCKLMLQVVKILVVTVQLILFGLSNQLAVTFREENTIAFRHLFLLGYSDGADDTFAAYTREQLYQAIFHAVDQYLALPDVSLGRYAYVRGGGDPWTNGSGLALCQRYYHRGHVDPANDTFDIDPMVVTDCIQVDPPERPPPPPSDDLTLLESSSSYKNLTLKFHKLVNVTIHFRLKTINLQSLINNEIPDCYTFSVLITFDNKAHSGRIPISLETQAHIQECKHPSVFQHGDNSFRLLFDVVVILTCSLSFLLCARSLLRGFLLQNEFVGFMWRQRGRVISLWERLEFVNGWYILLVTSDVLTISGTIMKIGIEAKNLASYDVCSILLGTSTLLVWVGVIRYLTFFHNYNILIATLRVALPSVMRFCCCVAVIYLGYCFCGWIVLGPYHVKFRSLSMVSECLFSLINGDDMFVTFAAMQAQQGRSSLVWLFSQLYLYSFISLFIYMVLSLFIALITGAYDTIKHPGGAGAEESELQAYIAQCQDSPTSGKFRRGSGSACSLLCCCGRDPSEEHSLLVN
#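 Tetracycline-induced TRPML1-DL cells are seeded and incubated overnight before loading with a no-wash Ca2+ dye and quencher. Agonist activity is taken from the 110 s fluorescence read following compound pin-transfer on an FDSS, before EC80 54-4 challenge.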
# D2 potentiator = potentiates the human D2 dopamine receptor allosterically. P14416. DiscoveRx D2 beta-arrestin cells, luminescence, 90 min; 100% = 57 uM dopamine signal. potentiation, % (test concentration not listed). 0.23% of 360,000 active. AID 624464; active = potentiation of 50% or more; inconclusive = 30% to 50%; inactive = 30% or less;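 further: compound concentration not given in the record; tested on top of an EC20 dose of dopamine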
#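 PathHunter beta-arrestin assay in DiscoveRx D2 cells. Compounds were added with an EC20 of dopamine (50 nM final) for 90 min at 37 deg C. Luminescence was read 1 h after detection reagent, with 57 uM dopamine as the EC100 control.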
# TRPML1 inh = human mucolipin-1 channel inhibition; Q9GZU1; TRPML1-inducible cells, Ca2+ dye fluorescence, FDSS; stronger effect = lower value; inhibition of EC80 agonist-evoked calcium signal; activity change, negative = inhibition, % (test concentration not listed); 0.02% of 390,000 active; in the data active means activity change below about -50%; inconclusive means about -30% to -50%; inactive means above about -30%;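 further: stimulus is agonist 54-4 at its EC80 concentration; on the % scale 0 is the no-effect control and ±100 the full control effect; compound concentration not given in the record; the text of the record puts the active cut at -80%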
#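 Calcium fluorescence in TRPML1-DL cells induced overnight with Tet: a 110 s read after compound pin addition, then a 110 s antagonist read after challenge with 54-4 at 4 uM final (EC80).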
# Six1-Eya2 blk = Six1/Eya2 interaction inhibition; activity change, % (no concentration beside the values); AlphaScreen GST-Six1/His-Eya2 binding, biochemical; stronger effect = lower value; control for the full effect not named in the record; Q15475+O00167; 0.56% of 360,000 active; in the data active = activity change below about -65%; inconclusive = about -30% to -65%; inactive = above about -30%; further: on the % scale 0 is the no-effect control and ±100 the full control effect; compound concentration not given in the record
#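 Homogeneous AlphaScreen proximity assay pairing GST-Six1 with His-tagged Eya2 (added as 5X mix: 250 nM and 500 nM) in 50 mM Tris pH 8.0, 300 mM NaCl, 1 mM TCEP. Glutathione donor and nickel acceptor beads; 1 h, 37 °C, dark.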
# Active calls of the source: *; ? = inconclusive; nt = not tested or not shown; & = joins results of further samples; [ ] = remark or other dose.
item	Structure	PINK1 modulator	D2 agonist	TRPML1 ag	D2 potentiator	TRPML1 inh	Six1-Eya2 blk
1	O=C(N/N=C/c1cc(Br)ccc1O)Nc1ccccc1	8.3%	2.0	-0.8	-2	0	2
2	COc1ccc2c(Sc3ccccc3)c(C(=O)NCCc3ccc(Cl)cc3)[nH]c2c1	1.5%	nt	0.5	nt	2	nt
3	CC(C)Cn1c(N)c(C(=O)CSc2ccccc2)c(=O)n(C)c1=O	24%	6.0	0.2	17	11	1
4	O=C1CCC[C@H]2c3[nH]c4ccccc4c3CCN12	1.1%	-10	nt	-17	nt	-1
5	Cc1cccc(NS(=O)(=O)c2cc(C(=O)NCc3ccccn3)ccc2C)c1	0.6%	-0.2	-0.7	3	3	3
6	CC1CCCCC12NC(=O)N(CC(=O)N1CCN(S(=O)(=O)Cc3ccccc3)CC1)C2=O (configuration not stated)	-0.8%	-1.5	-0.7	3	4	-1
7	Cc1nn(CC(=O)NCCCc2ccccc2)c(=O)c2cccn12	1.9%	3.8	-0.1	2	-11	2
8	Cn1c(N)c(C(=O)COC(=O)C2=NNC(=O)CC2)c(=O)n(C)c1=O	2.5%	-6.5	-0.1	-3	22	-2
9	Cc1cccc(NC(=O)c2cccc(NC(=O)c3ccco3)c2)c1	3.1%	0.3	0.1	-2	4	4
10	c1ccc(-n2cnnc2SCc2cn3cccnc3n2)cc1	-2.9%[38.3 µM]	0.4	-0.3	-4	-7	24
11	CCCCC(=O)Nc1sc2c(c1C#N)CC(C)(C)OC2	1.2%	-3.1	-0.8	0	17	2
12	COc1cccc(N2CCN(Cc3ncc(-c4ccccc4)o3)CC2)c1	1.6%	-0.9	-0.3	-17	16	?
13	Cc1ccc(-c2nc3ncccc3o2)cc1NC(=O)c1cc2ccccc2o1	21%	4.0	2.9	-16	2	1
14	CC(C)n1c(S(=O)(=O)O)nc2ccccc21	0.9%	2.3	-0.5	8	-1	-4
15	O=C(N/N=C\c1ccc([N+](=O)[O-])o1)c1cncc(Br)c1	-1.8%	5.5	-0.2	-1	-8	?
16	O=C(Oc1coc(CSc2nnc(NC(=O)C3CC3)s2)cc1=O)c1c(F)cccc1F	0.9%	-4.5	0.0	-5	0	-6
17	CC1=C(C(=O)NC2CCCCC2C)C2(CCC(C)CC2)OC1=O (configuration not stated)	1.3%	-4.8	0.4	-1	-1	6
18	CCc1ccc(NC(=O)NCC2CCN(c3ccc(OC)cc3)C2)cc1 (configuration not stated)	8.2%	-1.7	1.0	-8	15	-15
19	Cc1nnc(NC(=O)CSc2nccn2Cc2ccc(Cl)cc2)s1	-1.1%	nt	-0.4	nt	12	nt
20	Cn1c(=O)c2cc(NC(=S)NCc3ccccc3F)ccc2n1C	0.7%	10	-0.9	11	nt	-9
21	CC(=O)c1ccc(OCC(=O)NC(=O)NC2CCCC2)cc1	0.4%	-1.2	-1.1	-3	-9	2
22	CCc1ccc(CNC(=O)CCCN2C(=O)c3cccnc3Oc3ccc(Cl)cc32)cc1	-1.2%	nt	2.8	nt	-16	nt
23	CC1CCCCN1Cc1c(O)ccc2c(=O)c(-c3ccccc3)coc12 (configuration not stated)	?	5.1	0.6&1.7	-3	-18&6	2
24	C[C@@H]1Cn2cnc(C(=O)NCc3ccc(CNC(=O)OC(C)(C)C)cc3)c2C(=O)N1	1.5%	-2.4	4.7	-2	11	11
25	Cc1csc2nc(COC(=O)c3ccc(NC(=O)C(C)C)cc3)cc(=O)n12	2.4%	nt	0.2	nt	-24	nt

# 7 records picked at random from the list so far:
item	Structure	PINK1 modulator	D2 agonist	TRPML1 ag	D2 potentiator	TRPML1 inh	Six1-Eya2 blk
4	O=C1CCC[C@H]2c3[nH]c4ccccc4c3CCN12	1.1%	-10	nt	-17	nt	-1
21	CC(=O)c1ccc(OCC(=O)NC(=O)NC2CCCC2)cc1	0.4%	-1.2	-1.1	-3	-9	2
20	Cn1c(=O)c2cc(NC(=S)NCc3ccccc3F)ccc2n1C	0.7%	10	-0.9	11	nt	-9
12	COc1cccc(N2CCN(Cc3ncc(-c4ccccc4)o3)CC2)c1	1.6%	-0.9	-0.3	-17	16	?
1	O=C(N/N=C/c1cc(Br)ccc1O)Nc1ccccc1	8.3%	2.0	-0.8	-2	0	2
9	Cc1cccc(NC(=O)c2cccc(NC(=O)c3ccco3)c2)c1	3.1%	0.3	0.1	-2	4	4
5	Cc1cccc(NS(=O)(=O)c2cc(C(=O)NCc3ccccn3)ccc2C)c1	0.6%	-0.2	-0.7	3	3	3

# The results go on.
item	Structure	PINK1 modulator	D2 agonist	TRPML1 ag	D2 potentiator	TRPML1 inh	Six1-Eya2 blk
26	O=C(c1ccc(CNS(=O)(=O)c2cccc(Cl)c2)cc1)N1CCCCC1	-0.4%	1.4	-0.4	-3	-1	4
27	COc1cc(SC)ccc1C(=O)Nc1ccc2c(c1)CCN2S(C)(=O)=O	2.8%[38.3 µM]	0.0	0.3	-17	-2	-8
28	COc1ccc(CN2[C@@H](CC(=O)O)c3cc(C(F)(F)F)ccc3S2(=O)=O)cc1	-1.0%	-4.3	-0.2&0.0	-5	34	4
29	CCCCCn1c(=O)[nH]c2cc(C(=O)NC(C)CC)ccc2c1=O (configuration not stated)	0.8%	nt	0.0	nt	7	nt
30	COCCNC(=O)CN(Cc1ccc(OC)cc1)C(=O)CCC(=O)Nc1nccs1	-1.0%	-4.2	0.0	-12	-18	-15
31	COc1cccc(CN2CC(C(=O)NC3CCC3)CCC2=O)c1 (configuration not stated)	1.0%	-8.0	0.0	-13	2	9
32	COc1ccc(NS(=O)(=O)c2ccc(F)cc2F)cn1	3.2%	-3.5	-0.1	-2	3	2
33	O=C(CNC(=O)c1ccco1)Nc1ccc(N2CCCCCC2)cc1	-1.3%	3.5	0.1	-11	-25	-18
34	COc1ccc(N2CCN(C(=O)c3cc4c(s3)CCCCC4)CC2)cc1	3.4%	2.7	2.3	1	22	?
35	CCOC(=O)C1C(c2cccnc2)NC(=O)NC1(O)C(F)(F)F (configuration not stated)	2.9%	3.4	-0.4	1	-7	4
36	COc1ccc(S(=O)(=O)N(C)CC(=O)N2CCCC2)cc1OC	1.8%	-4.4	-0.6	-12	-14	7
37	CCOc1ccc(OCCC(=O)N2CCN(S(=O)(=O)c3ccc(F)cc3)CC2)cc1	0.0%	-5.2	2.0	-19	14	14
38	C=CCOc1c(CNc2ccc(C(=O)O)cc2)cccc1OC	3.4%	-3.8	-0.3	8	1	6
39	O=C(Nc1ccccc1Br)c1c(F)cccc1Cl	1.9%	-3.2	-0.1	-3	28	5
40	COc1cc(C(=O)NCC(c2ccco2)S(=O)(=O)c2cccs2)cc(OC)c1OC (configuration not stated)	0.6%	nt	-0.4	nt	21	nt
41	CCC(=O)OCCn1c(=O)c2cc3c(=O)n(CCOC(=O)CC)c(=O)c3cc2c1=O	-0.1%[38.3 µM]	2.4	2.6	-5	-14	0
42	COc1ccc(/C=N/NC(=O)CNc2ccc(Br)cc2)c(C(=O)O)c1OC	0.0%	1.3	-0.7	3	-3	0
43	COc1ccc(NC(=O)c2nc(C)n(-c3ccc([N+](=O)[O-])cc3)n2)cc1	1.9%	6.5	0.7	0	33	1
44	COc1ccccc1C/C(N)=N/OC(=O)c1ccc(C)c([N+](=O)[O-])c1	6.4%[38.3 µM]	?	3.4	145*	-10	-8
45	CC(=O)C1=CCC(c2cccc3ccccc23)N(S(=O)(=O)c2ccc(C)cc2)C1 (configuration not stated)	0.7%	-3.1	-0.1	0	nt	-1
46	CCOc1ccc(CC(=NCCc2ccccc2)C2=C(O)CC(C)(C)CC2=O)cc1OCC	6.2%	0.4	0.0	-3	-4	1
47	c1ccc2c(c1)nc(NCC1CCCO1)c1nnnn12 (configuration not stated)	3.4%	-3.4	0.1	-3	-4	-5
48	O=S(=O)(Nc1ccc(Cl)cc1)c1ccc(N2CCOCC2)c(NC(=S)NCCN2CCOCC2)c1	-1.0%	-2.6	-0.2	-6	-30	15
49	Nc1ccc([N+](=O)[O-])cc1C(=O)NNC(=O)c1ccco1	3.5%	-11	0.5	-16	-10	2
50	COc1ccc([C@@H]2[C@@H]3C(=O)N(C(C)(C)C)C(=O)[C@@H]3[C@]3(Cc4ccc(Cl)cc4)C(=O)N(c4cccc(F)c4)C(=O)N23)cc1	0.7%	-2.5	-0.1	-2	?	0
51	COc1ccc(NC(=O)COc2ccc3c(c2)CCC3)cc1	2.9%	5.7	-0.7	-4	9	6
52	O=S(=O)(NN=Cc1cccc(Cl)c1)c1ccccc1	2.7%	-10	-1.3	-19	nt	1
53	O=c1[nH]c(C2CCN(S(=O)(=O)c3cccc([N+](=O)[O-])c3)CC2)nc2c1nnn2Cc1ccccc1	2.7%	13	-0.1	10	-15	-5
54	CC1=C(c2ccc(F)cc2)S(=O)(=O)N=C1N1CCC(C(=O)NCCc2ccco2)CC1	1.2%	nt	2.5	nt	-10	nt
55	S=c1nc(C2CCCCC2)n(-c2ccccc2)[nH]1	3.3%	-7.8	-0.2	-5	-2	4
56	O=C(Nc1ccc(Cc2ccncc2)cc1)c1ccc(Br)o1	-0.5%	0.6	-0.2	-9	-9	-3
57	COC(=O)c1sccc1S(=O)(=O)N(CC(=O)Nc1ccccc1C)c1ccc(Cl)cc1	1.3%	nt	2.0	nt	-4	nt
58	CCC1CCCCN1C(=O)c1cc(-c2ccc(Cl)c(Cl)c2)on1 (configuration not stated)	-0.3%[38.3 µM]	-1.2	1.6	-11	70	7
59	O=C(C1CCN(S(=O)(=O)c2ccc(Cl)cc2)CC1)N1CCN(c2ccccn2)CC1	2.5%	3.5	1.2	2	8	8
60	CCC(C(=O)N1CCN(c2ccccn2)CC1)n1nc(C)n2c(cc3occc32)c1=O (configuration not stated)	3.9%	0.6	0.4	-10	6	5
61	COc1ccc(OC)c(CNc2ncnc3onc(C)c23)c1	2.0%	nt	-0.1	nt	8	nt
62	CCCCn1c(N)c(N(CC)C(=O)c2cccs2)c(=O)[nH]c1=O	-0.3%	-2.4	-0.2	-22	-2	9
63	Cc1cccc(NC(=O)[C@H](C)NC(=O)[C@@H]2Cc3ccccc3CN2C(=O)OC(C)(C)C)c1	1.5%	-3.1	-0.5	-3	18	3
64	CCOC(=O)[C@]12CCCC=C1N(Cc1ccc3c(c1)OCO3)C(=O)[C@H](CC(=O)NCC13CC4CC(CC(C4)C1)C3)C2	1.2%	nt	0.3	nt	nt	-14
65	Cc1cc(O)c(C(C[N+](=O)[O-])c2ccc(Cl)cc2)c(=O)o1 (configuration not stated)	-0.3%	-1.2	-0.8	-35	-2	0
66	CCOC(=O)C1=C(C)N(CCCCCC(=O)O)C(=O)NC1c1ccc([N+](=O)[O-])cc1 (configuration not stated)	0.0%	-4.5	-0.5	-10	-5	13
